# VACV mCherry inh: qHTS for Stage-Specific Inhibitors of Vaccinia Orthopoxvirus: mCherry Reporter Primary qHTS; Vaccinia virus mCherry reporter infection, fluorescence; about a quarter of the inactives have no number; Potency, µM (top dose mostly 36.5 µM), for the others: at the top dose activity change, negative = inhibition, actives largely listed as inhibitors; 310,000 compounds, 0.63% hits; AID 720579, 2013; active = well fitted inhibition curve with a large enough effect; inconclusive = small, poorly fitted or top-dose-only effect; inactive = no such curve, though single readings can be large or run the other way; tested in A549 cells; also: nearly all actives have a fitted effect of over 35% in size; inactives centre near -10
# VACV Venus inh: qHTS for Stage-Specific Inhibitors of Vaccinia Orthopoxvirus: Venus Reporter Primary qHTS; Potency, µM (highest dose often 36.5 µM), without a hit: at the top dose activity change, negative = inhibition, most hits filed as inhibitors; Vaccinia virus Venus reporter expression, fluorescence; AID 720580, 2013; 330,000 compounds, 0.46% hits; active means well fitted inhibition curve with a large enough effect; inconclusive means small, poorly fitted or top-dose-only effect; inactive means no such curve, though single readings can be large or run the other way; tested in A549 cells; also: nearly all actives have a fitted effect of over 30% in size; inactives centre near -10
# Numbers without * were called inactive; i = inactive; u = inconclusive; x = not tested or not shown; ! = repeats disagree; [ ] = another dose, or the depositor's remark. % is scaled to controls: 0 for no effect and ±100 for the full control effect; potency is read from the fitted curve at half-maximal effect.
# Every second line gives: VACV mCherry inh | VACV Venus inh
> Cc1cc(C)cc(N(C(C)C(=O)NCc2ccc3c(c2)OCO3)S(C)(=O)=O)c1 (stereo not given)
→ -26% | -6%
> Cc1ccccc1OCCn1cc(/C(N)=N/O)c2ccccc21
→ u | u
> O=c1[nH]cnc2scc(-c3ccccc3)c12
→ x | -22%
> CN(Cc1cnc2nc(N)nc(N)c2n1)c1ccc(C(=O)N[C@@H](CCC(=O)O)C(=O)O)cc1
→ 1µM*! | 3.2µM*
> CCC1CCCCN1C(=O)c1ccc([N+](=O)[O-])o1 (stereo not given)
→ -4% | -21%
> CC1CN(CC(=O)NCc2ccc3c(c2)OCO3)Cc2cc(Cl)ccc2O1 (stereo not given)
→ -3% | 8%
> CN(C)S(=O)(=O)N(CC(=O)NCCSCc1ccc(Cl)cc1Cl)c1ccccc1
→ -11% | -8%
> Cc1ccc(SCCC(=O)NCc2ccncc2)cc1
→ i | -11%
> CCOC(=O)C1CCCN(C(=O)Cn2nc(CC)n3c(cc4sccc43)c2=O)C1 (stereo not given)
→ 21% | -1%
> O=C(NCc1ccccc1C(F)(F)F)c1cccc2c1C(=O)c1ccc(N3CCCCC3)cc1S2(=O)=O
→ -11% | -14%
> CN(C(=O)CSc1nnc(Nc2ccccc2)s1)c1c(N)n(Cc2ccccc2)c(=O)[nH]c1=O
→ -11% | -2%
> N#Cc1c(NC(=O)CN2CCCCC2)sc2c1CCC2
→ x | -9%
> O=C(CSc1nnc(COc2ccccc2)n1Cc1ccco1)Nc1ccc2c(c1)OCCO2
→ -23% | -14%
> COc1cccc(CN2CCN(Cc3cccc(Oc4ccccc4)c3)CC2)c1OC
→ -28% | -28%
> Cc1ccc(-n2c(C)cc(/C=N/NC(N)=S)c2C)cc1
→ u | u
> Cc1cccc(C)c1NC(=O)c1ccc([N+](=O)[O-])s1
→ u | u
> Cc1ccc(OCc2nc(-c3cccs3)no2)c([N+](=O)[O-])c1
→ -5% | 6%
> CCOC(=O)c1c(C)[nH]c(C)c1S(=O)(=O)N1CCC(C(=O)N2CCN(c3ccc(Cl)cc3)CC2)CC1
→ u | u
> O=C(Cc1cccs1)NCCN1CCOCC1
→ -16% | -7%
> COc1ccc(CN(C)CC(=O)Nc2cccc3ccccc23)cc1F
→ u | -5%
> Cc1ccc(C)c(S(=O)(=O)N2CCCOC2CNC(=O)C(=O)NCc2ccccc2)c1 (stereo not given)
→ u | u
> Cc1ccc(S(=O)(=O)c2c(C)cc(C)nc2Oc2cccc(C)c2C)cc1
→ x | u
> CC(C)(C)C1CCc2onc(C(=O)NCc3ccc(F)cc3)c2C1 (stereo not given)
→ -22% | -13%
> Cc1ccccc1N=C(N)Nc1ccccc1C
→ i | -10%
> CCCC(=O)Nc1c(C(=O)N2CCN(c3ccccc3)CC2)oc2ccccc12
→ -9% | 1%
> Cc1ccc(C)c(NC(=O)CC2Sc3ccccc3NC2=O)c1 (stereo not given)
→ -26% | -15%
> CCCCCCCCN1C(=O)[C@H](CC(=O)NCc2cccc(C(F)(F)F)c2)C[C@@]2(C(=O)OCC)CCC=C12
→ -23% | -24%
> Cc1ccccc1NC(=O)Cc1nc(COC(=O)CSc2ccccc2)cs1
→ -10% | -6%
> O=C(O)c1ncn(Cc2ccc(Br)cc2)c1C(=O)O
→ -18% | -17%
> Cc1cc(C(=O)N2CCN(c3ccccc3)CC2)c2c(C)nn(-c3cccc(F)c3)c2n1
→ -13% | -11%
> CCCSc1nnc(NC(=O)Nc2ccc(C)cc2)s1
→ i | -9%
> CN(C)C=NC(=O)c1cc(C(=O)c2ccccc2)c[nH]1
→ i | -17%
> CSCCC(NC(=O)c1ccccc1Cl)C(=O)Nc1cccc(S(=O)(=O)N2CCCC2)c1 (stereo not given)
→ -18% | -1%
> COc1ccc(CCC(=O)Nc2ccc(Cl)c(S(=O)(=O)N3CCCC3)c2)cc1
→ i | -21%
> Brc1ccc(-c2nnc(-c3ccco3)o2)cc1
→ i | 7%
> O=C(Nc1ccc(S(=O)(=O)NC2=NCCCCC2)cc1)c1cccc(S(=O)(=O)N2CCOCC2)c1
→ -29% | -14%
> Cc1ccc(N(C)C(=O)Cn2nc(Cc3ccncc3)c3ccccc3c2=O)cc1C
→ -12% | -11%
> Cc1cc(C)nc(N2C(=O)CC(C(=O)O)NC2=NCCc2c[nH]c3ccccc23)n1 (stereo not given)
→ x | -14%
> CCOC(=O)Cc1nc(-c2cccc(C(F)(F)F)c2)no1
→ -8% | -10%
> CCOC(=O)C1=C(C)NC(SCC(N)=O)=C(C#N)C1c1cccs1 (stereo not given)
→ x | -17%
> Fc1ccc(Nc2nc(N3CCOCC3)c3ccccc3n2)cc1
→ x | -23%
> COc1nc(Oc2ccc(=O)n(C)n2)nc(N(C)C)n1
→ x | -4%
> CCN1CCN(c2ccc(S(=O)(=O)N3CCCCC3)cc2NC(=O)/C=C/c2ccc([N+](=O)[O-])cc2)CC1
→ u | -13%
> Cn1c(NCCO)nc2c1c(=O)n(Cc1ccccc1Cl)c(=O)n2C
→ -6% | -3%
> O=S(=O)(c1ccc(Cl)cc1)N1CCN(C(=S)Nc2ccccc2F)CC1
→ -29% | u
> COc1ccc(OC)c(NC(=O)c2ccc3c(c2)c(C)c(C)n3Cc2ccc(F)cc2)c1
→ -18% | -6%
> O=C(NNS(=O)(=O)c1ccc2ccccc2c1)C1CCN(Cc2ccccc2)CC1
→ -14% | -14%
> CCC(CC)C(=O)NCCc1ccc(F)cc1
→ -29% | -19%
> CCOc1ccc(NC(=O)CN(C)C(=O)CCCNC(=O)c2ccc(Cl)cc2)cc1OCC
→ -7% | -7%
> OCC1OC(n2ccc3c2ncn2ncnc32)C(O)C1O (stereo not given)
→ u | u

# New compounds follow.
compound,VACV mCherry inh,VACV Venus inh
CCC(C)(C)n1nnnc1C(C(C)C)N1CCN(C)CC1 (stereo not given),i,0%
Cc1ccc(C(=O)OCC(=O)c2ccc(CC(=O)N3CCOCC3)s2)c(C)c1,-3%,6%
COc1ccc(NC(=O)c2cc3ccccc3o2)c(OC)c1,-5%,-11%
COc1ccc(-c2c(C(=O)c3ccccc3)[nH]c(N)c2C(=O)NCc2ccccc2)cc1OC,-21%,-3%
CC(=O)Nc1ccc2c(c1)-c1ccc(F)cc1C2,-14%,-13%
CCOC(=O)C1CCN(S(=O)(=O)c2ccc3c(c2)CC(=O)N3)CC1,u,-11%
Cc1ccc(OC(=O)N(C)C[C@@H]2OCc3cnnn3CCCC(=O)N([C@@H](C)CO)C[C@H]2C)cc1,-22%,-8%
O=[N+]([O-])c1ccc(/C=N/NS(=O)(=O)c2ccc(Cl)cc2)o1,-14%,-10%
CC(=O)Nc1sc(N/N=C\c2ccco2)nc1-c1cccs1,i,-11%
Cc1ccc(NC(=O)CCC(=O)OCC(=O)c2ccc(Oc3ccc([N+](=O)[O-])cc3)cc2)cc1,-4%,-7%
O=C(CCn1ccnc1)Nc1ccc2ccccc2c1,-1%,-14%
O=C(NCCCCO)c1ccc2c3c(cccc13)CC2,-4%,-5%
Cc1ccc(COc2ccc(/C=N/O)cc2)cc1,-6%,-21%
C[C@H](CO)N1C[C@H](C)[C@H](CN(C)S(=O)(=O)c2ccc(Oc3ccccc3)nc2)OCc2cnnn2CCCC1=O,-2%,-10%
CSc1nn(Cc2ccc(C)cc2)c(N)c1S(=O)(=O)c1ccccc1,-5%,-5%
CN(C)CCn1c2c(c(SCC(=O)Nc3nccs3)nc1=O)CCCC2,-11%,-10%
CC(C)(C)C(=O)Cn1ncc(N2CCOCC2)c(Cl)c1=O,i,-4%
Cc1cc(C)c(-c2cc(NC(=O)COC(=O)c3ccc(C#N)cc3)n(-c3ccccc3)n2)cc1C,i,-16%
C=C(C)Cn1c(NCCC)nc2c1c(=O)n(C)c(=O)n2C,i,-10%
CCN=C1S/C(=C\c2cc(Br)ccc2OCC(=O)OCC)C(=O)N1CC,-11%,-5%
O=C(N/C(=C\c1cccnc1)C(=O)N1CCOCC1)c1ccco1,i,-12%
C=CCC1(CC=C)CCCN1C(=O)c1cc(COc2cccc(C(F)(F)F)c2)on1,-1%,-14%
COc1ccc(C(CC(=O)O)NC(=O)Cc2ccccc2)cc1 (stereo not given),-6%,-11%
Cc1cc(C)c(S(=O)(=O)N2CCN(C(=O)c3c(C)nn(-c4ccccc4)c3Cl)CC2)c(C)c1,i,u
Cc1cccc(NC(=O)CN2C(=O)S/C(=C\C(=O)Nc3ccc(Cl)cc3)C2=O)c1,i,-8%
CCOc1ncccc1C(=O)OCC(=O)Nc1ccc(Cl)cn1,-8%,-12%
N#Cc1ccccc1Cn1cc(C(=O)c2ccccc2F)c2ccccc21,-8%,u
O=C(CN1C(=O)CSc2ccc(C(F)(F)F)cc21)Nc1ccccc1,-10%,-9%
COc1ccccc1OCC(=O)NCCCN1CCOCC1,-4%,-1%
CCn1c(SCc2ccc(C(=O)OC)o2)nc2sc3c(c2c1=O)CCCC3,-13%,-2%
Cc1cccc(N(C(=O)CCC(=O)Nc2nccs2)C(C(=O)NC(C)(C)C)c2ccc(O)cc2)c1 (stereo not given),i,-8%
OC(COCc1ccccc1)CN1CCc2ccccc2C1 (stereo not given),i,-8%
CNc1c(NS(=O)(=O)c2ccc(OC)cc2)c(=O)oc2ccccc12,-15%,-4%
COc1ccc(Cc2nnc(NC(=O)Nc3ccccc3OC)s2)cc1,-25%,-24%
O=S(=O)(c1cccs1)N1CCc2ccccc2C1,-14%,-5%
COc1ccc(OC)c(N(CC(=O)NC2CC3CCC2C3)S(=O)(=O)c2ccccc2)c1 (stereo not given),-6%,-6%
O=S(=O)(c1ccc(F)cc1)n1ccc(-c2cccc(OCc3ccc(Cl)cc3Cl)c2)n1,-26%,-24%
COC(=O)c1c(NC(=O)CCCOc2ccc(C(C)(C)C)cc2)sc2c1C(C(=O)OC)CC2 (stereo not given),0%[7.34 µM],-7%[7.34 µM]
CC(C)C(=O)N1CCN(c2ccccc2NC(=O)c2cccc(Cl)c2)CC1,-7%,7%
CN(C(=O)c1ccccc1OCc1ccc(Cl)cc1)c1ccccc1,i,-8%
O=C(NCc1cccnc1)c1ccccc1NC(=O)c1c(F)cccc1F,-9%,2%
COc1ccc(C(=O)NC(C)CCc2ccccc2)cc1[N+](=O)[O-] (stereo not given),-24%,-20%
Cc1nn(C(C)C(=O)NCCN2CCCC2)c(=O)c2c1sc1ccccc12 (stereo not given),i,-11%
COc1ccc(S(=O)(=O)Nc2ccc(F)cc2)cc1N(C)S(=O)(=O)c1ccc(Cl)cc1,u,u
O=C(c1ccc(Br)o1)N(c1ccc(Br)cc1)C1C=CS(=O)(=O)C1 (stereo not given),-9%,-10%

# Exported field by field: part of the list above.
COC(=O)c1c(NC(=O)CCCOc2ccc(C(C)(C)C)cc2)sc2c1C(C(=O)OC)CC2 (stereo not given)
  VACV mCherry inh: 0%[7.34 µM]
  VACV Venus inh: -7%[7.34 µM]
CC(C)C(=O)N1CCN(c2ccccc2NC(=O)c2cccc(Cl)c2)CC1
  VACV mCherry inh: -7%
  VACV Venus inh: 7%
CN(C(=O)c1ccccc1OCc1ccc(Cl)cc1)c1ccccc1
  VACV mCherry inh: i
  VACV Venus inh: -8%
O=C(NCc1cccnc1)c1ccccc1NC(=O)c1c(F)cccc1F
  VACV mCherry inh: -9%
  VACV Venus inh: 2%

# (continued)
compound,VACV mCherry inh,VACV Venus inh
S=C(NCc1ccccc1)Nc1ccc2cn[nH]c2c1,-9%,-11%
COc1ccc(Cl)cc1NC(=O)CSc1nnc2[nH]c(=O)cc(C)n12,i,-10%
CCO[C@H]1OC(C(=O)O)=C[C@@H](C(C)(C)C)[C@@H]1CCCO,-9%,-5%
CC(=O)N1CCN(C(=O)Nc2cccc(C(F)(F)F)c2)CC1,x,-6%
Cc1cccc(NC(=S)N2CCN(c3ccccc3)CC2)c1,-10%,-17%
C/C(=N\Nc1ccc(Cl)cc1)c1ccccn1,i,-7%
Cn1c(N2CCN(c3ccccn3)CC2)nc2c1c(=O)n(Cc1ccc(Cl)cc1)c(=O)n2C,x,-12%
CCNc1ccc(C(=O)OCC(=O)NCc2ccc(C)cc2)cc1[N+](=O)[O-],-9%,-4%
Nc1c(N(Cc2ccccc2)C(=O)COc2cccc(Cl)c2)c(=O)[nH]c(=O)n1Cc1ccccc1,-17%,-6%
COc1cc2c3nc4n(c(=O)c3n(CC(=O)N3CCCC3)c2cc1OC)CCS4,i,-12%
Cc1ccc(S(=O)(=O)NCC(c2ccc(N(C)C)cc2)N2CCc3ccccc32)cc1C (stereo not given),-8%,-11%
Cn1c(SCC(=O)NC2CC2)nnc1C(F)(F)F,-14%,-16%
CCN1CCN(CCCNC(=O)C2c3ccccc3C(=O)N(c3ccc(OC)cc3)C2c2ccc(OC)cc2)CC1 (stereo not given),i,0%
Fc1ccc(/C=C2\CCCC3=C2Nc2ncnn2C3c2ccc(F)cc2)cc1 (stereo not given),u,18µM*
COc1ccc(C(=O)C2CCCN(S(=O)(=O)c3cccc(C)c3)C2)c(C)c1 (stereo not given),-29%,-26%
O=C(Nc1ccccc1F)C1(c2ccccc2)CC1(Cl)Cl (stereo not given),i,-8%
Cc1nc2sccn2c1-c1nc(-c2cc3ccccc3o2)cs1,i,-16%
